Screening results as filed in PubChem BioAssay.
PINK1 expr mod: changes PINK1 expression. PINK1 immunofluorescence, high-content cytometry, 24 h. Potency, µM (highest dose often 76.6 µM), inactives show at the top dose activation (PINK1 increase), actives largely listed as activators. 410,000 compounds, 0.2% hits; active = well fitted activation curve with a large enough effect; inconclusive = small, poorly fitted or top-dose-only effect; inactive = flat fitted curve, though single readings scatter; cell line not stated here;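 further: potency means the concentration at half of the fitted maximal effect; % of control where 0% means no effect; nearly all actives have a fitted effect of over 65% in size; a mitochondrial uncoupler was the plate control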
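Stable cell line treated 24 h with compounds at 5 concentrations (CCCP controls), then fixed and immunostained for PINK1 plus nuclear and cell stains; PINK1 immunofluorescence quantified by laser-scanning microplate cytometry.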
TRPV1 PAM: potentiators of human vanilloid receptor 1 (TRPV1); TRPV1-expressing cells, Fluo-8 calcium influx, capsaicin EC20 potentiation; host cell line not named in the record; control for the full effect not named in the record; AID 540277; potentiation, % at 8.33 µM; 320,000 compounds, 0.02% hits; active means potentiation above 80%; inconclusive means 30% to 80%; inactive means below 30%; further: 0% is about no effect
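TRPV1-expressing cells were cultured overnight at 35.5C and loaded with Fluo-8 calcium dye for 40 to 90 min at room temperature. After a 10 s baseline, compound was added and calcium influx was read kinetically for 3 min (ex 480/em 520 nm).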
TRPML1 agonist: human mucolipin-1 channel agonism. Q9GZU1. TRPML1-expressing cells, Ca2+ dye fluorescence, FDSS; host cell line not named in the record; reference of the full effect not given here. activation, % (test concentration not listed). 410,000 compounds, 0.12% hits. AID 624414; in the data active = activation above about 50%; inconclusive = about 30% to 50%; inactive = below about 30%; further: 0% is about no effect; the text of the record puts the active cut at 80%
Target sequence (Q9GZU1 whole entry, looked up): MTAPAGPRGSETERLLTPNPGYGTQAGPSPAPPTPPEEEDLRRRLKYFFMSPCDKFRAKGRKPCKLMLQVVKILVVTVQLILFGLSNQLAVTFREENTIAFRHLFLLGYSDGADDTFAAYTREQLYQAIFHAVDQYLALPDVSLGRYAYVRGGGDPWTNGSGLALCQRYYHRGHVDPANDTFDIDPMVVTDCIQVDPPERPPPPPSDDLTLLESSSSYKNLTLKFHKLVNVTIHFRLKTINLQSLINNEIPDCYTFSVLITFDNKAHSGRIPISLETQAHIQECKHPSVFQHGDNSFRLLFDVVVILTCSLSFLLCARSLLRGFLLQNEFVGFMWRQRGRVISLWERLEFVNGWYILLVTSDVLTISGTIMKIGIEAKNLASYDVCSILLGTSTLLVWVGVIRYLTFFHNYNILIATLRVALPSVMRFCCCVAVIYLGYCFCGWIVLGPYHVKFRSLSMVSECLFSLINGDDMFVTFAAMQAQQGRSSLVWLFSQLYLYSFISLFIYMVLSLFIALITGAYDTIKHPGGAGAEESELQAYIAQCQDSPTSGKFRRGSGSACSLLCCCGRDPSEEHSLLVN
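Cells: TRPML1-DL, 1X Tet inducer, ~16 h at 37 degrees C/5% CO2. Dye: ABD Ca8 no-wash + quencher, 45-90 min RT. Read: 10 s baseline, compound add, 110 s agonist phase; 54-4 EC80 (4uM final), 110 s antagonist phase.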
ClpP mod: qHTS Assay for Activators of ClpP. Potency, µM (doses to about 57.5 µM), for inactives: top-dose activity change, negative = active. 340,000 compounds, 1.9% hits. purified B. subtilis ClpP, FRET peptide cleavage, 20 min. AID 651965, 2013; active = well fitted falling curve with a large enough effect; inconclusive = small, poorly fitted or top-dose-only effect; inactive = no such curve, though single readings can be large or run the other way; further: potency means the concentration at half of the fitted maximal effect; the source files actives as falling curves though it sought activators and does not explain the sign; nearly all actives have a fitted effect of over 65% in size; many hits overshoot -100%
Target sequence (P80244 whole entry, looked up): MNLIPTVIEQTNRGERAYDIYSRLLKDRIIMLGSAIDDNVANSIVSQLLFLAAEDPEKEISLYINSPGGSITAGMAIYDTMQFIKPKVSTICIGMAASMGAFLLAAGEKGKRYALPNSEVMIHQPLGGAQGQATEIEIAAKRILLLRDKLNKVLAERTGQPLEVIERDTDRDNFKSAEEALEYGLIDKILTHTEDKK
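Buffer: 100 mM Tris/HCl pH8, 100 mM KCl, 0.05% low protease BSA, 2.5% glycerol, 0.01% Tween-20. ClpP 10 microg/mL final; 20 min RT; delta FRET normalized to ADEP and DMSO controls.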
Sfp PPTase inh: inhibitors of Bacillus subtilis Sfp phosphopantetheinyl transferase. Q9F4F7. Biochemical Sfp PPTase activity, qHTS. Potency, µM, without a hit: max response, negative = inhibition, hits mostly inhibitors. 310,000 compounds, 3.5% hits. AID 1490; active means well fitted inhibition curve with a large enough effect; inconclusive means small, poorly fitted or top-dose-only effect, or another doubt; inactive means no such curve, though single readings can be large or run the other way;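 further: the enzyme is Sfp with the accession as filed and its product quenches rhodamine fluorescence; potency means the concentration at half of the fitted maximal effect; 0% = enzyme reaction without inhibitor and -100% = no enzyme wells; top concentration of the series not given in the record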
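Fluorescence-quenching assay: 15 nM Sfp-PPTase preincubated 15 min at room temperature with compound, then 5 uM rhodamine-CoA and 12.5 uM BHQ-2-labelled YbbR peptide added. Fluorescence (ex 525/em 598 nm) read at start and after 30 min; difference gives rate.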
TRPML1 blocker: inhibitors of human TRPML1 channel. TRPML1-inducible cells, Ca2+ dye fluorescence, FDSS; hits give low values; inhibition of EC80 agonist-evoked calcium signal. activity change, negative = inhibition, % (no concentration beside the values). 390,000 compounds, 0.02% hits; in the data active means activity change below about -50%; inconclusive means about -30% to -50%; inactive means above about -30%;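 further: stimulus is agonist 54-4 at its EC80 concentration; on the % scale 0 is the no-effect control and ±100 the full control effect; compound concentration not given in the record; the text of the record puts the active cut at -80%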
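Calcium fluorescence in TRPML1-DL cells induced overnight with Tet: a 110 s read after compound pin addition, then a 110 s antagonist read after challenge with 54-4 at 4 uM final (EC80).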
Menin MLL FP FL: displaces fluorescein MLL peptide from human menin; AID 1766; 290,000 tested, under 10 active; FP activity change, % at 61.4 µM; Fluorescence polarization, fluorescein-MLL peptide displacement from menin; inconclusive = falling polarisation curve, or a change in total fluorescence; inactive = total fluorescence flat and polarisation flat or rising; no compound was filed as active; the % refers to the polarisation; negative = inhibition;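 further: % of control where 0% means no effect; inhibitors lower the polarisation; unlabelled MLL peptide was the positive control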
Numbers without * were called inactive; ? = inconclusive; . = no result given; [ ] = remark or other dose.

SMILES	PINK1 expr mod	TRPV1 PAM	TRPML1 agonist	ClpP mod	Sfp PPTase inh	TRPML1 blocker	Menin MLL FP FL
CCn1c2c(c3ccc(OC)cc31)CCCC2=O	-0.5%	19.7	-0.7	-16.4%	?	-1.3	-0.8
Cc1ccc2cc(CN(CC3CCCO3)C(=S)NCc3ccco3)c(=O)[nH]c2c1 (configuration not stated)	1.5%	-8.9	1.1	.	44.7µM*	2.7	-0.2
CN1OC[C@@H]2CN(C(=O)c3ccc(-c4ccccc4)cc3)[C@H](c3ccc(-c4cccc(F)c4)cc3)C[C@@H]21	3.0%	.	0.5	-1.1%	.	78.6	.
O=C(Cn1cc([N+](=O)[O-])ccc1=O)Nc1ccc2c(c1)OCO2	1.3%	1.6	0.5	-5.6%	.	17.0	.
C/C=C/c1cccc(-c2nc(C(=O)NC3CCCC3)cc3c2[C@@H](CCO)N(S(=O)C(C)(C)C)C3)c1 (some centres not stated)	2.3%	.	-0.4	-0.7%	.	-6.5	.
COc1cccc(NC(=O)NC2(C(=O)N3CCN(C)CC3)CCCCC2)c1	2.6%	-5.4	-0.2	.	13.8%	1.8	2.8
COc1ccc(CC(=O)NC2CC(C)(C)NC(C)(C)C2)cc1	?	-24.4	0.3	-1.2%	2.8%	11.2	1.6
Cc1ccc(S(=O)(=O)NC(CC(C)C)C(=O)N2CCOCCOCCOCCOCC2)cc1 (configuration not stated)	-1.5%	-6.4	-1.0	-0.1%	-16.6%	3.8	2.1
O=C(/C=C/[C@H]1O[C@@H](n2ccc(=O)[nH]c2=O)[C@H](O)[C@@H]1O)NCc1ccco1	0.7%	.	-0.3	-1.8%	.	-13.4	.
CCc1nc2ccc(C(=O)Nc3cccc(OC)c3)cn2c1N(CCC(C)C)CCN(C)C	1.3%	.	0.3	2.0%	.	.	.
CCc1nn(CCCC(=O)NCc2ccccc2OC)c(=O)c2cc3occc3n12	0.2%	.	-0.6	-2.3%	.	-6.0	.
Cc1csc(SC(C)C(=O)Nc2ccc(S(=O)(=O)N3CCCC3)cc2)n1 (configuration not stated)	-1.4%	-23.2	-0.6	-1.3%	6.9%	-8.8	2.1
Cc1ccc(NC(=O)C2CCCN2S(=O)(=O)c2cccc3nsnc23)c(Br)c1 (configuration not stated)	2.8%	.	0.7	-1.9%	.	14.1	.
Cc1ccccc1N1CCN(C(=S)c2ccc(-c3cccc([N+](=O)[O-])c3)o2)CC1	-2.3%	-0.4	0.5	-1.0%	-4.9%	76.1	-0.3
CCOC(=O)Nc1ccc2c(c1)N(CCCN(C)C)c1ccccc1CC2	6.5%	-4.5	.	?	2.5%	.	-3.4
CCOCCCNC(=O)CCNS(=O)(=O)c1ccc(C)cc1	2.1%[38.3 µM]	0.9	0.0	-3.6%	11.1%	-9.5	0.2
CC[n+]1ccccc1/C=C1\Sc2ccc(C)cc2N1C	15.8µM*	-8.9	0.9	0.9%	-9.1%	2.9	23.7
O=C(N/N=C/C=C/c1ccc(Br)cc1)C(O)c1ccccc1 (configuration not stated)	12.6%	-2.1	2.1	-0.5%	11.1%	9.9	2.0
CCOC(=O)COc1ccc2c(c1)C(=O)CC(C)(C)O2	-8.2%[38.3 µM]	8.4	0.9	28.2µM*	22.1%	21.4	0.4
COc1ccc(CNC(=O)C(C)n2nc(C)c3c(C)n(-c4ccc(C)cc4)nc3c2=O)cc1 (configuration not stated)	1.5%	18.6	-1.8	-1.0%	5.4%	20.0	1.6
Cc1onc(-c2ccccc2Cl)c1C(=O)Oc1cc(F)cc(F)c1	-0.3%	.	-0.4	-3.9%	.	14.5	.
CSCCC(NS(=O)(=O)c1ccc2c(c1)oc(=O)n2C)C(=O)NCc1cccs1 (configuration not stated)	9.6%	9.6	0.6	.	-14.1%	-17.9	2.7
C[C@@H]1C=CC(=O)O[C@@H]1c1ccc(Cl)cc1	15.1%	23.5	-0.2	-0.8%	16.9%	-7.2	-1.6
CCOc1ccc(NC(=O)CSc2nc3cc(C(=O)NCC4CCCO4)ccc3c(=O)n2CC2CCCO2)cc1 (configuration not stated)	-0.4%	.	-0.6	0.9%	.	-4.9	.
O=C(N/N=C/c1ccccn1)c1cc(-c2ccc(Br)s2)[nH]n1	3.3%	-0.1	-0.2	.	6.9%	-20.3	-3.4

Reformatted in CSV form: part of the list above
compound,PINK1 expr mod,TRPV1 PAM,TRPML1 agonist,ClpP mod,Sfp PPTase inh,TRPML1 blocker,Menin MLL FP FL
COc1ccc(CC(=O)NC2CC(C)(C)NC(C)(C)C2)cc1,?,-24.4,0.3,-1.2%,2.8%,11.2,1.6
Cc1ccc(S(=O)(=O)NC(CC(C)C)C(=O)N2CCOCCOCCOCCOCC2)cc1 (configuration not stated),-1.5%,-6.4,-1.0,-0.1%,-16.6%,3.8,2.1

Remaining list, next part.
SMILES	PINK1 expr mod	TRPV1 PAM	TRPML1 agonist	ClpP mod	Sfp PPTase inh	TRPML1 blocker	Menin MLL FP FL
Cc1sc2ncnc(Nc3ccccc3)c2c1C	1.5%	-7.9	-1.4	-0.6%	8.2%	-3.7	2.1
Cc1nn(-c2ccccc2)c(C)c1C(=O)OCC(=O)NC(=O)NC1CCCCC1	0.9%	2.1	1.3	1.5%	-9.5%	0.2	-0.2
Cc1cc(NC(=O)CSc2nnc(C)n2C)no1	2.6%	1.6	-0.1	.	17.4%	6.3	.
Cc1ccc(NC(=O)N2CCN(C(=O)c3ccco3)CC2)cc1Cl	-0.6%	-2.8	0.6	0.9%	3.9%	-6.2	0.8
CCCC(=O)Nc1nc2nc(-c3ccccc3)cc(-c3ccccc3)n2n1	3.4%	-11.8	4.1	12.6µM*	2.6%	9.6	-1.4
CC(=O)Nc1ccc(S(=O)(=O)N(CC(=O)O)Cc2ccccc2)cc1	1.6%	1.6	-0.4	0.5%	25.6%	4.6	-0.6
CCOC(=O)N1CCN(CC(=O)Nc2nnc(C(F)(F)F)s2)CC1	0.8%	5.0	.	1.1%	-9.7%	.	-0.2
COc1ccc2nc(NC(=O)CCc3ccc(OC)c(OC)c3)sc2c1	0.7%	0.9	1.2	-0.8%	-0.9%	4.6	-0.3
CCc1cc(=O)oc2cc(C)cc(OCC(=O)NCCc3c[nH]c4ccccc34)c12	2.7%	2.7	.	4.3%	11.2%	.	0.1
O=C(Nc1nc2ccc(S(=O)(=O)N3CCCC3)cc2s1)c1cccc(F)c1	1.5%	.	-1.1	-12.2%	.	-9.8	.
CCOC(=O)c1ccccc1NC(=O)CC1SC(=NC)N(C)C1=O (configuration not stated)	1.1%	-13.2	-0.5	-11.6%	-5.1%	5.9	11.7
O=C(NCc1ccc(Cl)cc1)c1cccc(NC(=O)c2ccccc2)c1	1.7%	-4.7	0.6	60.7%	8.5%	28.0	5.7
CCOc1ccc(-n2c(C)cc(/C=N/NC(=O)C(N)=O)c2C)cc1	1.9%	5.4	-1.3	.	-11.8%	-12.4	4.6
C=CCNC(=S)Nc1cc(S(=O)(=O)N2CCOCC2)ccc1-n1cncn1	-0.5%	21.9	0.5	-4.7%	?	6.9	0.9
Cc1cccc(C)c1-n1ncc(C(=O)Nc2ccc3c(c2)OCCO3)c1C1CCN(C(=O)OC(C)(C)C)CC1	2.9%	.	-0.2	-2.7%	.	6.4	.
CS(=O)(=O)N(CC(=O)NCc1ccncc1)c1cc(Cl)cc(Cl)c1	-2.2%	-1.9	-0.7	1.4%	10.9%	23.5	-4.5
CCCn1c(SCC(=O)N2CCc3ccccc32)nnc1-c1ccco1	-0.6%	1.9	0.2	-1.6%	-5.0%	-5.3	-1.1
O=S(=O)(c1ccc(Br)cc1)c1nc(-c2cccs2)oc1SCc1ccc(F)cc1	0.0%	.	0.2	-10.9%	.	18.9	.
COc1ccc(-c2csc(C(O)c3ccc(F)cc3)n2)cc1 (configuration not stated)	6.2%	.	-0.4	-0.9%	.	.	.
Cc1ccc(C)c(SCC(=O)Nc2oc(C)c3c(C)n[nH]c(=O)c23)c1	0.1%	11.1	0.2	-1.6%	.	-6.0	.
COc1cccc(NC(=O)c2cc(CN3CCOCC3)on2)c1	0.0%	.	1.6	-0.4%	.	-20.5	.
C=CCc1c(C)nc2nc(SCC(=O)Nc3ccccc3CC)nn2c1C	0.8%	.	-0.1	0.3%	.	-0.6	.
Cc1cc(C)nc(N(C#N)C(C)C(=O)N(C)C)n1 (configuration not stated)	0.5%	-1.8	1.4	1.0%	10.7%	16.7	4.0
CN(Cc1ccccc1)Cc1nc2c(c(=O)n(C)c(=O)n2C)n1CCc1ccccc1	.	.	3.1	-2.5%	.	2.6	.
Cc1nn(C)c(Cl)c1CN1CCN(C2CCCC2)C(CCO)C1 (configuration not stated)	0.2%	7.0	0.0	-0.8%	-12.0%	-3.2	2.0

(cont.)
SMILES	PINK1 expr mod	TRPV1 PAM	TRPML1 agonist	ClpP mod	Sfp PPTase inh	TRPML1 blocker	Menin MLL FP FL
COc1ccc(NC(=O)CC2C(=O)N(C)C(=S)N2Cc2cccs2)cc1 (configuration not stated)	16.9%	9.4	-0.7	1.2%	-4.0%	-9.6	-6.0
O=C(O)CC(NC(=O)CCc1ccccc1)c1ccc(Cl)cc1 (configuration not stated)	-0.9%	5.4	0.4	-0.4%	24.6%	16.2	-6.8
COc1ccc2c(=O)c3c(=O)n(Cc4ccco4)c(-c4ccc(C)cc4)nc3oc2c1	0.2%	25.8	2.6	-1.1%	25.1µM*	25.7	-1.8
CCNc1ccc(C(=O)N/N=C/c2c(C)nn(-c3ccccc3)c2N2CCCC2)cc1[N+](=O)[O-]	1.8%	3.0	-0.9	1.4%	-5.3%	6.3	3.1
Cc1cc(C(=O)COC(=O)CCC(=O)c2ccc3c(c2)OCCO3)c(C)n1Cc1ccco1	-0.2%	9.4	0.2	0.0%	6.3%	-22.1	7.4
O=C(Nc1ccc(F)c(Cl)c1)c1cc(S(=O)(=O)NCc2ccc3c(c2)OCO3)ccc1F	-0.9%	.	0.1	-4.2%	.	3.3	.
CCOC(=O)c1cnc(-n2nc(C)cc2C)nc1Oc1ccccc1F	-1.1%	-9.8	1.2	-0.4%	-14.3%	28.7	1.8
CCCOc1ccc(C(=O)NCCC(=O)NCCCC(=O)OCC)cc1	-2.6%[38.3 µM]	-4.1	0.2	-0.6%	-3.0%	-4.7	-1.0
CNC(=O)/C(C#N)=C/c1c(N2CCN(c3ccc(OC)cc3)CC2)nc2c(C)cccn2c1=O	-0.3%	-15.1	-2.0	1.2%	-0.7%	35.4	3.8
O=[N+]([O-])c1ccc2c(c1)nc(CO)n2Cc1ccccc1	4.1%	-8.7	1.0	0.6%	8.0%	-5.6	-0.2
